Screening data: PubChem BioAssay, National Center for Advancing Translational Sciences (NCATS)
gsp ag – activates gsp, the McCune-Albright syndrome mutation; gsp mutant cells, cAMP HTRF, 30 min; control for the full effect not named in the record; Potency, µM (series often up to 76.9 µM), for inactives: at the top dose activation (cAMP increase), most hits filed as activators; actives 0.13% (n = 340,000); AID 624287; active = well fitted activation curve with a large enough effect; inconclusive = small, poorly fitted or top-dose-only effect, or another doubt; inactive = no such curve, though single readings can be large or run the other way; cell line not stated here;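 note: phosphodiesterase inhibitor Ro 20-1724 added with compounds to block cAMP breakdown; potency is the fitted concentration of half-maximal effect; nearly all actives have a fitted effect of over 60% in size; about a fifth of the inactives were tested at one dose only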
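Cells in DMEM/10% FBS with G418 were pretreated with compounds in DMSO plus […] (300 uM stock) for 30 min at 37C. cAMP was measured by HTRF (cAMP-d2 plus anti-cAMP antibody-K) after 30 min at room temperature.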
Six1-Eya2 inh – blocks human Six1 binding to Eya2. Q15475+O00167. AID 651725. activity change, % (no concentration beside the values). AlphaScreen GST-Six1/His-Eya2 binding, biochemical; hits give low values; control for the full effect not named in the record. actives 0.56% (n = 360,000); in the data active = activity change below about -65%; inconclusive = about -30% to -65%; inactive = above about -30%; note: % is set by controls: 0 for no effect and ±100 for the full control effect; compound concentration not given in the record
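Six1/Eya2 binding was read as AlphaScreen signal after compounds were pinned into GST-Six1 plus His-tagged Eya2 (5X stock 250/500 nM) in pH 8.0 Tris/NaCl/TCEP buffer, beads added, then incubated 1 h, 37 C, dark.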
gsp antagonist – antagonists of gsp mutant (McCune-Albright syndrome); actives 0.4% (n = 340,000); gsp-mutant cells, cAMP HTRF, 30 min; control for the full effect not named in the record; Potency, µM (titrated, usually from 76.9 µM), without a hit: at the top dose activity change, negative = inhibition, usual class: inhibitors; active = falling curve of any shape with a large fitted effect; inconclusive = falling curve, mostly with a smaller effect; inactive = flat or rising curve; cell line not stated here;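 note: intracellular cAMP measured with PDE inhibitor Ro 20-1724 present during compound exposure; potency is the fitted concentration of half-maximal effect; % is set by controls: 0 for no effect and ±100 for the full control effect; nearly all actives have a fitted effect of over 65% in size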
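Measurement of cellular cAMP by homogeneous time-resolved fluorescence following a 30 min compound exposure at 37C. The PDE inhibitor […] was present throughout; the assay buffer was DPBS with 0.05% BSA and 0.005% Tween 20.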
D2 agonist – activates the human D2 dopamine receptor | activation, % (no concentration beside the values) | P14416 | AID 624465 | DiscoveRx PathHunter D2 beta-arrestin, luminescence, 90 min; 100% = 57 uM dopamine signal | actives 0.084% (n = 360,000); in the data active = activation above about 40%; inconclusive = about 15% to 40%; inactive = below about 15%; note: compound concentration not given in the record; the text of the record calls up to 30% inactive
Target sequence (P14416 whole entry, looked up): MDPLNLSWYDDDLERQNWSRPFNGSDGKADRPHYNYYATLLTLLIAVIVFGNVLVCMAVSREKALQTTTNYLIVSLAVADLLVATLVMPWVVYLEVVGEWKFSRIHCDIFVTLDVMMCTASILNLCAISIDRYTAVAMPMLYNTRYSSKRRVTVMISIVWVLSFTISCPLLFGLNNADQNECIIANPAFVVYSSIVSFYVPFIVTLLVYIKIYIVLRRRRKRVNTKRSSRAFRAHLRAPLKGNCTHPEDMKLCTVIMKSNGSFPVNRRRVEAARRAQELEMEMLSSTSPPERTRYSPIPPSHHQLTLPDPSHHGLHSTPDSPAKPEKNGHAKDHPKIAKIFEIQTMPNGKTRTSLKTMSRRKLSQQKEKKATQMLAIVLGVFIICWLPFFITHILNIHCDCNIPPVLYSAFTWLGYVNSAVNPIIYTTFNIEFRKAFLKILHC
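Agonist mode: compounds alone added to overnight-plated D2 PathHunter cells for 90 min at 37 C, with 57 uM final dopamine (EC100) defining full response. Beta-arrestin recruitment detected by chemiluminescent reagent, read after 1 h at ambient temperature.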
CtBP-E1A blk – blocks the CtBP interaction with E1A | AlphaScreen GST-E1A/His-CtBP binding, 1536-well; hits give low values; control for the full effect not named in the record | activity change, % (test concentration not listed) | actives 0.49% (n = 340,000); in the data active means activity change below about -65%; inconclusive means about -30% to -65%; inactive means above about -30%; note: % is set by controls: 0 for no effect and ±100 for the full control effect; compound concentration not given in the record
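GST-E1A and His-tagged CtBP (125 nM each as 5X stock) were preincubated with pin-transferred compound for 2 h at 37 °C in the dark, then glutathione donor and nickel acceptor beads were added for 1 h before AlphaScreen reading.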
D2 PAM – human D2 receptor positive allosteric modulation; DiscoveRx D2 beta-arrestin cells, luminescence, 90 min; 100% = 57 uM dopamine signal; AID 624464; actives 0.23% (n = 360,000); P14416; potentiation, % (test concentration not listed); active = potentiation of 50% or more; inconclusive = 30% to 50%; inactive = 30% or less;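 note: compound concentration not given in the record; tested on top of an EC20 dose of dopamine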
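PathHunter beta-arrestin assay in DiscoveRx D2 cells. Compounds were added with an EC20 of dopamine (50 nM final) for 90 min at 37 deg C. Luminescence was read 1 h after detection reagent, with 57 uM dopamine as the EC100 control.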
Numbers without * were called inactive; ? = inconclusive; . = not tested or not shown; [ ] = dose if it differs, or a comment.

SMILES	gsp ag	Six1-Eya2 inh	gsp antagonist	D2 agonist	CtBP-E1A blk	D2 PAM
COCn1c(C(O)c2ccccc2)cc2ccccc21 (stereo not drawn)	-3%	2	4%	-4.1	7	-1
NC(=O)COC(=O)c1cc(Cl)cc(Cl)c1N	1%	7	-3%	-1.1	2	-5
CCn1c(SCC(=O)N2CCc3ccccc3C2)nc2c1c(=O)n(C)c(=O)n2C	?	2	2%	0.5	3	2
O=C(CN1CCN(c2ccccc2)CC1)Nc1ccc(-n2cnnn2)cc1	-67%	4	3%	11	6	-1
O=C(NCc1ccc(F)cc1)c1cnc(-c2ccccn2)nc1C(F)(F)F	-5%	6	18%	-3.0	23	-12
COc1ccc(N(CC(=O)NCc2ccc(Cl)cc2)S(=O)(=O)c2c(C)noc2C)cc1	55%	4	-12%	-1.6	-8	-1
N=c1sccn1CC(=O)Nc1ccc2c(c1)CCC2	-11%	-1	7%	0.1	1	-25
COc1cc(S(=O)(=O)N2CCCCC2)ccc1NC(=O)Cc1ccccc1	-2%	-21	-19%	-1.9	-9	-7
Cc1ccccc1-c1cnc(C(O)c2ccc(C(C)(C)C)cc2)[nH]1 (stereo not drawn)	.	-15	.	-1.6	-3	-8
CNC(=O)CN(c1cccc(Br)c1)S(C)(=O)=O	22%	3	0%	-2.9	9	-8
CC(C)(C)C1CCC(=NNC(=O)CC(=O)NCc2ccccc2)CC1 (stereo not drawn)	-32%[inhibitor]	1	16%	-0.9	2	6
Cc1ccc(C)c(NS(=O)(=O)c2cc(C(=O)NCCC3=CCCCC3)ccc2C)c1	2%	2	-26%	-1.4	-1	-5
O=c1[nH]c2ccccc2nc1Cc1ccc(Cl)cc1	23%[15.4 µM]	-3	-31%	-1.2	0	-8
O=C(NCN1CCN(c2ccccc2)CC1)c1cnccn1	?	-1	-1%	-0.3	2	-14
O=C(Oc1ccc(C(=S)N2CCOCC2)cc1)c1ccc([N+](=O)[O-])cc1[N+](=O)[O-]	-19%	-3	-3%	-4.0	9	-4
CCn1nc(C)c(CN2CCC(C(=O)Nc3cccc(-c4cccc(F)c4)c3)CC2)c1C	-16%	12	-5%	2.5	.	-5
COc1ccc(S(=O)(=O)N2CCC(C(=O)NCCC(=O)Nc3ccccc3OC)CC2)cc1	-127%[inhibitor]	-16	.	0.5	-1	-9
Cc1ccc(S(=O)(=O)N2CCOCC2)cc1NC(=O)COC(=O)c1ccco1	13%	1	.	-4.7	-7	-19
O=C(O)c1cccc2c3c([nH]c12)CCCC3	3%	-3	3%	-3.3	7	-2
COC(=O)c1sccc1NC(=O)c1ccc(Cl)s1	3%	4	1%	2.0	7	-8
O=C(NCCNc1ccc([N+](=O)[O-])cc1C(F)(F)F)c1cccc(F)c1	4%	1	?	-1.8	6	-18
NC(=O)c1cc2ccccc2o/c1=N/NC(=O)c1cccc(Cl)c1	?	17	2%	-3.5	1	2
O=C(Nc1ccc(S(=O)(=O)N2CCOCC2)cc1)c1ccc(S(=O)(=O)N2CCOCC2)cc1	-16%[15.4 µM]	23	17%	3.5	-2	-2
CN(C)c1ccc(N2C(=O)CSC2=S)cc1	-28%	-17	-5%	7.0	-17	14
Cc1cc(C)nc(N2C(=O)CC(C(=O)O)NC2=NCCc2c[nH]c3ccccc23)n1 (stereo not drawn)	9%	5	-1%	1.0	-3	-4

The final five compounds of the section above are carried over, then new ones follow.
SMILES	gsp ag	Six1-Eya2 inh	gsp antagonist	D2 agonist	CtBP-E1A blk	D2 PAM
O=C(NCCNc1ccc([N+](=O)[O-])cc1C(F)(F)F)c1cccc(F)c1	4%	1	?	-1.8	6	-18
NC(=O)c1cc2ccccc2o/c1=N/NC(=O)c1cccc(Cl)c1	?	17	2%	-3.5	1	2
O=C(Nc1ccc(S(=O)(=O)N2CCOCC2)cc1)c1ccc(S(=O)(=O)N2CCOCC2)cc1	-16%[15.4 µM]	23	17%	3.5	-2	-2
CN(C)c1ccc(N2C(=O)CSC2=S)cc1	-28%	-17	-5%	7.0	-17	14
Cc1cc(C)nc(N2C(=O)CC(C(=O)O)NC2=NCCc2c[nH]c3ccccc23)n1 (stereo not drawn)	9%	5	-1%	1.0	-3	-4
COc1cc(CN2CCNC(=O)C2CC(=O)NCCCN2CCOCC2)cc(OC)c1 (stereo not drawn)	22%	2	-3%	-1.7	6	-2
CCOC(=O)c1sc(NS(=O)(=O)c2ccc(F)cc2)nc1C	-10%[15.4 µM]	-1	-20%	-0.5	-1	3
Nc1nc(N)c2sc3nc(C(F)(F)F)cc(C(F)(F)F)c3c2n1	15%	?	9%	-2.1	?	3
COc1ccc(N2C(=O)C(OC(C)=O)C2c2ccc(C)cc2)cc1 (stereo not drawn)	?	6	17%	-4.5	5	-6
Cc1c(C(=O)OCC(=O)N2c3ccccc3CC2C)oc2ccccc12 (stereo not drawn)	13%	8	-16%	0.5	-3	-10
CCC(CO)Nc1ncnc2c1cnn2-c1ccc(OC)cc1 (stereo not drawn)	7%	-9	-10%	4.8	-1	3
c1ccc(-n2ncc3c(NCCN4CCOCC4)ncnc32)cc1	16%	-6	7%	0.8	-11	-18
Cc1cccc(C)c1NC(=O)C1c2ccccc2Oc2ccccc21	-10%[15.4 µM]	-8	16%	-3.9	19	5
CCOC(=O)/C(C#N)=C/c1ccc(OC(=O)c2ccco2)c(OCC)c1	4%[15.4 µM]	0	1%	-1.8	6	-2
CC1CCN(S(=O)(=O)c2ccc(NC(=O)CN3CCCC(C)C3)cc2)CC1 (stereo not drawn)	4%	-2	12%	-2.3	-1	-12
Cc1cc(C(=O)COC(=O)c2ccncc2)c(C)n1Cc1ccco1	-16%[15.4 µM]	-5	3%	-3.4	-20	-4
Cn1nccc1NC(=O)Nc1cccc(Cl)c1	-13%	2	-6%	-2.7	8	-6
O=C(CN1CCC(NC(=O)c2cccc(F)c2)CC1)NCc1ccccc1F	-16%	0	2%	-1.6	-19	-7
Nc1ncc(-c2ccc(-c3ccccc3)cc2F)cc1-c1ccccc1F	.	0	.	-5.0	0	-10
O=C(Nc1ccnn1C1CCN(CCCc2ccccc2)CC1)c1ccccc1	8%	10	-13%	-1.4	-7	-7
COc1ccc(/C(N)=N/OC(=O)c2ccc3c(c2)OCO3)cc1	-5%[15.4 µM]	-5	7%	?	-9	103*
CN1C(=O)C(O)(CC(=O)/C=C/c2ccco2)c2cc(Br)ccc21 (stereo not drawn)	?	-1	5%	-5.3	-8	-9
Clc1ccccc1C1SCC2Nc3ccccc3CN21 (stereo not drawn)	-23%	-17	-21%	-4.8	-3	-10
Cc1cccn2c(=O)c(C=O)c(N3CCSCC3)nc12	3%	-5	-6%	-4.1	.	2
COc1ccc(NS(=O)(=O)c2cc(NC(=O)c3ccc(C)s3)ccc2N2CCOCC2)cc1	-5%[15.4 µM]	-5	-3%	-0.7	-7	-13
CC1(C)Cc2c(C#N)c(N)sc(=S)c2CS1	9%	-11	-7%	-1.8	-18	-6
O=C1NC(Cc2ccc(O)cc2)c2nc3ccc(Cl)cc3c(=O)n2-c2cc3ccccc3cc21 (stereo not drawn)	-79%[inhibitor]	-8	.	-5.0	-6	-1
COc1ccc(Cc2noc(CN(C)CC3CCN(Cc4ccccc4)CC3)n2)cc1OC	-2%	5	6%	-3.8	.	-22
Cn1cnc2cc(NCc3ccccc3Cl)ccc21	-7%	-8	2%	-7.0	-5	-18
CCCn1c(SCC(=O)Nc2c(C)cccc2CC)nnc1C(C)C	?	-2	18%	-2.9	1	2

Record cards (already shown):
Entry for Cn1cnc2cc(NCc3ccccc3Cl)ccc21 → gsp ag = -7%; Six1-Eya2 inh = -8; gsp antagonist = 2%; D2 agonist = -7.0; CtBP-E1A blk = -5; D2 PAM = -18
Entry for Cn1nccc1NC(=O)Nc1cccc(Cl)c1 → gsp ag = -13%; Six1-Eya2 inh = 2; gsp antagonist = -6%; D2 agonist = -2.7; CtBP-E1A blk = 8; D2 PAM = -6

Continued:
SMILES	gsp ag	Six1-Eya2 inh	gsp antagonist	D2 agonist	CtBP-E1A blk	D2 PAM
CCN(CC(=O)NC1CCCC1)S(=O)(=O)c1ccc(Br)cc1	7%	5	-6%	-3.8	-7	-23
CC1=C(C(=O)OCC(C)C)C2(O)C(=O)c3ccccc3C2(O)N1 (stereo not drawn)	24%	7	13%	-6.0	13	-34
COCCNC(=O)C1(C)C=CC2(CCCCC2)N1C(=O)c1ccccc1 (stereo not drawn)	.	8	7%	-3.3	4	-4
Cc1ccc(S(=O)(=O)NNC(=O)c2ccc(O)cc2)cc1	1%[15.4 µM]	3	10%	1.5	-2	-3
CCCNC(=O)[C@@H]1CCCN1C(=O)C1CCN(S(=O)(=O)c2ccc(C)cc2)CC1	0%	5	1%	-2.7	-10	-12
O=C(c1ccc2c(c1)CCC2)N1CCN(Cc2ccccc2)CC1	?	41	.	-3.5	2	-30
Cc1ccc(CN2CCSc3ccc(C(=O)NCc4cccnc4)cc32)cc1	4%	-14	?	-3.7	-8	-5
CCOc1ccc(CN(C)CC(=O)NNC(=O)c2ccc(Cl)cc2)cc1OC	-6%	8	1%	-2.1	1	-27
Cc1ccccc1S(=O)(=O)NC(=O)C1(C)CCN1C(=O)CC1CCCC1 (stereo not drawn)	.	1	.	1.6	5	-2
Cc1ccn2cc(CCNC(=O)CC3CCCCC3)nc2c1	-4%	-1	13%	-2.6	-3	-5
C[C@H](NC(=O)c1[nH]cnc1C(=O)Nc1ccc(CNC(=O)OC(C)(C)C)cc1)C(=O)OC(C)(C)C	2%	-4	-18%	2.9	2	3
CCn1c(SCC(=O)Nc2ccccc2N2CCCCC2)nc2c1c(=O)n(C)c(=O)n2C	15%	16	-4%	0.1	0	3
Nc1nc(-c2ccccc2)c(CCCOc2ccc([N+](=O)[O-])cc2)c(=O)[nH]1	-3%	3	-15%	-1.5	-2	2

Taken from above.
In Six1-Eya2 inh, Cc1ccc(S(=O)(=O)NNC(=O)c2ccc(O)cc2)cc1 is listed with 3
In gsp ag, CCn1c(SCC(=O)Nc2ccccc2N2CCCCC2)nc2c1c(=O)n(C)c(=O)n2C is listed with 15%

Part of the list above, with values under each structure.
Order of results: gsp ag | Six1-Eya2 inh | gsp antagonist | D2 agonist | CtBP-E1A blk | D2 PAM
CCN(CC(=O)NC1CCCC1)S(=O)(=O)c1ccc(Br)cc1
 : 7% | 5 | -6% | -3.8 | -7 | -23
CC1=C(C(=O)OCC(C)C)C2(O)C(=O)c3ccccc3C2(O)N1 (stereo not drawn)
 : 24% | 7 | 13% | -6.0 | 13 | -34
